Vaccinia mCherry – qHTS for Stage-Specific Inhibitors of Vaccinia Orthopoxvirus: mCherry Reporter Primary qHTS; Vaccinia virus mCherry reporter infection, fluorescence; about a quarter of the inactives have no number; Potency, µM (series often up to 36.5 µM), for the others: top-dose activity change, negative = inhibition, actives largely listed as inhibitors; 310,000 compounds, 0.63% hits; active = well fitted inhibition curve with a large enough effect; inconclusive = small, poorly fitted or top-dose-only effect; inactive = no such curve, though single readings can be large or run the other way; tested in A549 cells; further: nearly all actives have a fitted effect of over 35% in size; inactives centre near -10
Vaccinia Venus – qHTS for Stage-Specific Inhibitors of Vaccinia Orthopoxvirus: Venus Reporter Primary qHTS; Vaccinia virus Venus reporter expression, fluorescence; AID 720580, 2013; Potency, µM (doses to about 36.5 µM), for inactives: at the highest dose activity change, negative = inhibition, most hits filed as inhibitors; 330,000 compounds, 0.46% hits; active means well fitted inhibition curve with a large enough effect; inconclusive means small, poorly fitted or top-dose-only effect; inactive means no such curve, though single readings can be large or run the other way; tested in A549 cells; further: nearly all actives have a fitted effect of over 30% in size; inactives centre near -10
Active calls of the source: *; i = inactive; ? = inconclusive; . = no result given; [ ] = dose if it differs, or a comment. On the % scale 0 is the no-effect control and ±100 the full control effect; potency means the concentration at half of the fitted maximal effect.

canonical_smiles | Vaccinia mCherry | Vaccinia Venus
CCC(C)NC(=O)Cn1nc([N+](=O)[O-])c(Cl)c1C (configuration not stated) | -1% | 4%
CC(C)NCc1c(O)c(Br)cc2oc3c(c12)CCCC3 | -14% | -5%
O=c1cc(-c2ccccc2)nc(Cc2c(Cl)cccc2Cl)[nH]1 | ? | -17%
COc1cccc(NC(=O)CSc2nnc3c(n2)[nH]c2ccc(C)cc23)c1 | -11% | -2%
Cc1cccc(NC(=O)CSc2nnc(NC(=O)CN3CCOCC3)s2)c1 | . | -17%
Cc1cc(NCCCn2ccnc2)n2ncc(-c3ccc(Cl)cc3)c2n1 | 13µM* | ?
O=C(N[C@H]1CC[C@H](CCNS(=O)(=O)c2ccc(Cl)cc2)O[C@@H]1CO)c1cccc(F)c1 | -17% | ?
COc1ccccc1CNC(=O)CCc1c(C)c2ccc(OC)c(C)c2oc1=O | -7% | 4%
CCCCNC(=O)c1cc(-c2ccc(OC)cc2)nc2n[nH]c(-c3cccc([N+](=O)[O-])c3)c12 | -23% | -14%
COc1cccc(OCC(=O)NNC(=O)c2cccs2)c1 | i | -14%
CC1(C)C2C(Cl)(Cl)C2(C)c2ccccc2N1C=O (configuration not stated) | -1%[7.34 µM] | 4%[7.34 µM]
COc1cc(/C=N\NC(=O)OC(C)(C)C)ccc1OC(=O)c1ccco1 | -9% | -1%
Cc1ccc(NC(=O)C2CCCN(S(=O)(=O)c3ccc(F)cc3)C2)cc1 (configuration not stated) | -13% | -15%
Cc1cccc(C)c1OCC(=O)NCC1CCCO1 (configuration not stated) | -2% | 1%
COc1ccc(-c2nc3cccc(C)n3c2NCc2ccco2)cc1OC | . | -2%
O=C(O/N=C1/CCCc2occc21)c1ccccc1 | . | 3%
COc1ccc(NCc2nc3ccccc3n2CCOc2ccccc2)cc1 | ? | -29%
CN1Cc2sc(NC(=S)NC(=O)c3ccccc3)c(C#N)c2CC1(C)C | -9% | 23%
CC(C)C[C@@H](CN)NC(=O)c1nc[nH]c1C(=O)N[C@@H](Cc1ccccc1)C(=O)CNC[C@H](C)NC(=O)c1nc[nH]c1C(=O)N[C@@H](C)C(=O)O | i | 3%
CC(=O)c1ccc(S(=O)(=O)N2CCN(C(=O)CSc3ccc(F)cc3)CC2)cc1 | i | -18%
COc1ccc(C(=O)Nc2nc(-c3nnn(-c4ccc(F)cc4F)c3C)ns2)cc1 | ? | ?
Cc1nn(Cc2ccccc2)c2c1C(c1cccnc1)C(C#N)=C(N)O2 (configuration not stated) | . | -8%
CC(c1nc2ccccc2c(=O)[nH]1)N1CCN(S(=O)(=O)c2ccc(F)c(Cl)c2)CC1 (configuration not stated) | i | -20%
COc1cccc(C(=O)Nc2nc3c(s2)CCCC3)c1 | 0% | -3%
c1ccc(C2CCCN(Cc3nc(CC4CC4)no3)CC2)cc1 (configuration not stated) | -2% | -6%
COCCNC(=O)C1(C)CCN(C(=O)c2cc(C)nn2C(C)(C)C)C1 (configuration not stated) | 13% | 6%
NC(=O)c1ccc(N2CCNC(=O)C2)c([N+](=O)[O-])c1 | -5% | -5%
O=C(CCCn1c(SCc2cccc(F)c2)nc2ccccc2c1=O)NCC1CCCO1 (configuration not stated) | i | -6%
CCN(CC(=O)Nc1ccc(NC(C)=O)cc1)C(=O)/C=C/c1cn(-c2ccccc2)nc1-c1cccs1 | -7% | -28%
COc1ccccc1NC(=O)Cn1c(=O)oc2cc(S(=O)(=O)NCc3ccccc3)ccc21 | -12% | -1%
Cc1ccccc1NC(=S)N(Cc1ccccc1)Cc1cccs1 | ? | -12%
Cc1ccc(-c2csc(NC(=O)C3=NN(C4CCS(=O)(=O)C4)C(=O)CC3)n2)cc1 (configuration not stated) | -6% | -1%
Cc1ccc(CNC(=O)Cn2cnc3cc([N+](=O)[O-])ccc3c2=O)cc1 | i | 0%
C[C@@]12CCC[C@@](C)(C(=O)O)C1CC[C@@]13C[C@@H](NCc4ccccc4)[C@@](C)(CCC12)C3 (some centres not stated) | i | -17%
O=C(O)c1ccc(OS(=O)(=O)c2ccc(Cl)s2)cc1 | -18% | -3%
Cn1c(CCNC(=O)c2cccs2)nnc1SCC(=O)Nc1nc(-c2ccccc2)cs1 | -17% | -15%
COCc1cc(C)nc2c1C(=O)NC(c1ccc(Br)cc1)N2Cc1ccccc1 (configuration not stated) | -9% | -6%
Cc1noc(C)c1COC(=O)c1ccc(S(=O)(=O)N2CCCCC2)cc1 | -26% | -6%
COc1oc(C(=O)NC2CCCCC2)c(-c2ccc(Cl)cc2)c1S(=O)(=O)c1ccccc1 | i | -9%
CC1=C(C(=O)Nc2ccc(C)cc2C)C(c2ccccc2C)n2ncnc2N1 (configuration not stated) | -2% | 4%
O=C(c1ccc2c(c1)OCO2)C1CCCN(Cc2ccccn2)C1 (configuration not stated) | i | -12%
O=C(CSc1ccc(-c2cccs2)nn1)NCCc1ccccc1 | -1% | -17%
CS(=O)(=O)N1CCCC(C(=O)NCc2ccc(F)cc2)C1 (configuration not stated) | -11% | -3%
O=C(CCn1nc(-c2ccc(Cl)cc2)c2ccccc2c1=O)Nc1cccnc1 | ? | -18%
CCn1c(CN2CCOCC2)nc2cc(NC(=O)c3ccc([N+](=O)[O-])cc3)ccc21 | -30% | -30%
COc1ccc(OC)c2sc(N(CCN(C)C)C(=O)c3ccc4ccccc4c3)nc12 | -5% | -11%
O=C(NNS(=O)(=O)c1ccccc1)c1cccc([N+](=O)[O-])c1 | i | -13%
Cc1ccc(NC2CCCN(C(=O)c3cn(C)c4ccccc34)C2)cc1C (configuration not stated) | i | -7%
COc1cc(OC)cc(C(=O)N[C@H](C(=O)OCC(=O)c2c[nH]c3ccccc23)C(C)C)c1 | i | -12%
CC(C)(C)c1ccc(C(=O)NNc2ccc(F)cc2F)cc1 | -4% | -24%
CC(C)n1c(/N=C/c2ccccc2O)nc2ccccc21 | -19% | -17%
CC1=C(C(=O)Nc2ccccc2C)C(c2ccncc2)n2nc(SCc3ccccc3)nc2N1 (configuration not stated) | -7% | -11%
COc1ccc(NC(=O)CSCC(=O)Nc2ccccc2C(=O)N2CCCCC2)cc1 | -11% | -7%
CCOc1ccccc1NC(=O)CSc1cn(CC(=O)N2CCCCCC2)c2ccccc12 | -12% | -10%
CC(Nc1nc(Cl)nc2nc[nH]c12)c1ccccc1 (configuration not stated) | -26% | -29%
CC1(Oc2ccccc2)CCN(Cc2ccc(-c3ccccn3)cc2)C1 (configuration not stated) | 12% | 1%
CC(=O)n1cc([C@H]2C=C(C(=O)NCc3ccccc3)O[C@@H](OCCCCO)C2)c2ccccc21 | i | -12%
CC(/C=N/NC(=O)c1ccc2nc(C)[nH]c2c1)=C\c1ccccc1 | -19% | -18%
COCCNC(=O)C1CCN(S(=O)(=O)c2ccc3c(c2)OCCO3)CC1 | i | -4%
NS(=O)(=O)c1cccc(NC(=O)Nc2ccccc2)c1 | -16% | -5%

Next part.
canonical_smiles | Vaccinia mCherry | Vaccinia Venus
CCOC(=O)/C(=C\c1cccc(O)c1)c1nc2sc(C)c(C)c2c(=O)[nH]1 | ? | ?
COc1cccc(CNC(=O)[C@@H]2CCCN2C(=O)[C@H]2CCCCN2C(=O)c2ccccc2)c1 | 21% | 16%
CCC1Nc2ccccc2-c2nnc(SC)nc2O1 (configuration not stated) | . | -10%
C[C@H]1O[C@H](O[C@H]2[C@H](O)[C@@H](O)[C@@H](O)[C@H](O)[C@@H]2O)[C@@H](N)C[C@@H]1NC(=N)C(=O)O | 8% | 21%
O=C(NCC1CCCO1)Nc1ccccc1 (configuration not stated) | -5% | -9%
C[C@@H]1COC(=O)[C@H](NC(=O)OCC2c3ccccc3-c3ccccc32)C/C=C\C[C@@H](CC(=O)N[C@H](CO)Cc2ccccc2)C(=O)N1 | -22% | -17%
CC1CCN(c2ccc3c(c2)S(=O)(=O)c2cccc(C(=O)NC4CCCCC4)c2C3=O)CC1 | i | -25%
CCC(=O)N1CCC1(C)C(=O)Nc1cccc2cccnc12 (configuration not stated) | 35%[activator] | -12%
Cc1cc(N2CCCCC2)nc2ccc(NC(=O)c3ccc(F)cc3)cc12 | 5% | 1%
COc1ccc(C(=O)Oc2ccc(C(=S)N3CCOCC3)cc2)cc1 | -7% | -19%
Cc1ccc(C(=O)NCC#N)cc1 | ? | -4%
Cc1ccc(NS(=O)(=O)c2cc(C(=O)NCc3ccccn3)ccc2Cl)cc1C | -21% | -3%
N#Cc1c(NC(=S)NC(=O)c2ccccc2)sc2c1CCCC2 | -13% | -3%
CCC(C)c1ccccc1NC(=O)C1CCCO1 (configuration not stated) | -10% | -1%
CC(C)CN(C(=O)COC(=O)c1nc(Cl)ccc1Cl)C1CCS(=O)(=O)C1 (configuration not stated) | -6% | -9%

Quoted at random: six records from the list.
canonical_smiles | Vaccinia mCherry | Vaccinia Venus
Cc1cc(N2CCCCC2)nc2ccc(NC(=O)c3ccc(F)cc3)cc12 | 5% | 1%
O=C(NCC1CCCO1)Nc1ccccc1 (configuration not stated) | -5% | -9%
N#Cc1c(NC(=S)NC(=O)c2ccccc2)sc2c1CCCC2 | -13% | -3%
C[C@@H]1COC(=O)[C@H](NC(=O)OCC2c3ccccc3-c3ccccc32)C/C=C\C[C@@H](CC(=O)N[C@H](CO)Cc2ccccc2)C(=O)N1 | -22% | -17%
C[C@H]1O[C@H](O[C@H]2[C@H](O)[C@@H](O)[C@@H](O)[C@H](O)[C@@H]2O)[C@@H](N)C[C@@H]1NC(=N)C(=O)O | 8% | 21%
CC(C)CN(C(=O)COC(=O)c1nc(Cl)ccc1Cl)C1CCS(=O)(=O)C1 (configuration not stated) | -6% | -9%

(next part)
canonical_smiles | Vaccinia mCherry | Vaccinia Venus
Cc1cc(N(C)C)c(C#N)c(N2CCCCC2)n1 | -23% | -18%
Nc1ccc(C23CC4CC(CC(O)(C4)C2)C3)cc1 | . | ?
COc1ccc(C(=O)Nc2ccncc2)c(OC)c1 | i | -12%
CCOc1ccc(NC(=O)c2cc3c(C)nn(-c4ccccc4)c3s2)cc1 | ? | ?
CC(=O)Nc1ccc(Nc2cc(N3CCOCC3)c3nonc3c2[N+](=O)[O-])cc1 | -14% | -15%
CSc1nnc2c(n1)OC(c1ccsc1)N(C(C)=O)c1ccccc1-2 (configuration not stated) | -9% | -11%
Cc1ccccc1NC(=O)c1onc2c1CCCC2 | -14%[1.46 µM] | -24%
CCN(Cc1ccccc1)C(=O)c1ccc2c(=O)n3c(nc2c1)CCC3 | -6% | -4%
COc1ccccc1NS(=O)(=O)c1cccc(C(=O)N2CCCCCCC2)c1 | -11% | -13%
Brc1ccc(-c2csc(-c3ccncc3)n2)cc1 | -7% | -8%
Cc1ccccc1C(=O)Nc1ccccc1N1CCN(C(=O)c2ccccc2)CC1 | -14% | -8%
COc1ccc(Cc2nc3ccc(C(=O)N4CCCCC4CCO)cc3o2)cc1 (configuration not stated) | i[7.34 µM] | -15%[7.34 µM]
O=C(O)c1ccc(OCC(O)Cn2cnc3ccccc32)cc1 (configuration not stated) | -21% | -11%
CCOc1cc(/C=N/NC(=O)c2ccc3c(c2)OCCO3)cc(Br)c1O | 4% | 3%
CC(=O)Nc1c(-c2ccc(F)cc2)nc2ccccn12 | i | -12%
COc1cccc(/C=C/C(=O)OCC(=O)Nc2ccccc2Sc2ccccc2)c1 | -6% | -9%
COC(=O)C1=C(c2ccc(F)cc2OCc2ccccc2)C[C@@H]2CC[C@H]1N2C(=O)NC1Cc2ccccc2C1 | -14% | ?
COc1ccc(NC(=O)Cc2coc3ccc4ccccc4c23)cc1S(=O)(=O)N1CCOCC1 | ? | ?
C=C(C)[C@@H](O)COc1c2ccoc2cc2oc(=O)ccc12 | -7% | 1%
O=C(c1ccc(Cl)cc1Cl)N1CCC(c2nc3c(nnn3Cc3ccco3)c(=O)[nH]2)CC1 | . | -24%
Cc1ccc(NC(=O)CSc2nc3ccccc3c3nc(CCn4cncc4C)nn23)cc1F | ? | -20%
O=C(CCn1nc(-c2ccccc2)ccc1=O)N1CCOCC1 | -9% | -5%
CCNc1cc(O)ccc1C | -5% | 27%
O=C(OCc1cn([C@H]2C[C@H](c3ccc(Cl)cc3)N(CC3CCCCC3)C[C@@H]2O)nn1)c1ccccc1 | -4% | 1%
CC(C)C(O)C1CCN(Cc2nc(-c3cccs3)no2)CC1 (configuration not stated) | -20% | -17%
CCCc1nc2oc3c(Cl)ncnc3c2c2c1CCCC2 | -1%[7.34 µM] | -11%[7.34 µM]
CC1CCN(C(=O)c2cc(F)c(F)cc2Cl)CC1 | i | -13%
Cc1ccc(NC(=S)NCCN2CCOCC2)cc1F | -9% | 4%
COc1cccc(SCc2noc(C(=O)NC(C)C)c2C(=O)O)c1 | 0% | -10%
OC(COC1CCCCC1)CN1CCCCC1 (configuration not stated) | -14% | -17%
CCC12C=CCN3CCC4(c5ccc(OC)cc5N(C)C4[C@@](O)(C(=O)OC)C1OC(C)=O)C32 (some centres not stated) | 19% | 3%
CCOC(=O)C1(CCOC)CCN(Cc2ccc(COC)o2)CC1 | i | -9%
Cc1cc2cc(CN(Cc3ccco3)C(=S)NCC3CCCO3)c(=O)[nH]c2cc1C (configuration not stated) | i | -12%
CC1CN(C(=O)CCC(=O)NCc2ccccc2)c2ccccc2O1 (configuration not stated) | i | -1%
CCOC(=O)c1c(C)[nH]c(C(=O)COC(=O)c2ccc([N+](=O)[O-])o2)c1C | ? | ?

Screens from PubChem BioAssay.
